Assay outcomes: PubChem BioAssay, National Center for Advancing Translational Sciences (NCATS)
Prx2 Sm inh: blocks S. mansoni peroxiredoxin 2 enzymatic activity; S. mansoni Prx2 activity coupled to TGR/GSH (TGR is thioredoxin glutathione reductase), NADPH fluorescence loss, qHTS; some inactives read as strong as hits; Potency, µM; 0.07% of 65,000 active; AID 448; active means full or partial inhibition curve with a strong effect at the top dose; inconclusive means weaker partial or single-point curve; inactive means no accepted curve; also: series up to 57 µM; many of its hits are not listed in these tables
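qHTS, coupled TGR/Prx2 format; 15 min compound preincubation at RT; reaction started with H2O2 (2.5 mM aliquot); kinetic NADPH fluorescence decrease, ex 365/em 450 nm.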
LT uptake inh: anthrax lethal toxin internalization inhibition. AID 912. Potency, µM (doses to about 40 µM), inactives show top-dose activity change, negative = inhibition, most hits filed as inhibitors. Cells, anthrax lethal toxin internalization, FRET ratio (460/530). 0.67% of 70,000 active; active = well fitted falling ratio curve with the 530 nm signal flat; inconclusive = other ratio curves, or a change in one channel alone; inactive = flat curves in the ratio and both channels; the % refers to the ratio; also: % is scaled to controls: 0 for no effect and ±100 for the full control effect; nearly all actives have a fitted effect of over 50% in size; tested in ME-180 cells; beta-lactamase reporter
An asterisk follows results filed as active; ? = inconclusive; . = not tested or not shown; [ ] = another dose, or the depositor's remark. Potency is read from the fitted curve at half-maximal effect.

SMILES	Prx2 Sm inh	LT uptake inh
CC(=O)N1c2ccccc2N(Cc2ccc(C)cc2C)C(=O)C1(C)C	>57	?
Cc1cc(=O)[nH]c(SCC(N)=O)c1C#N	>57	-19%
CCCCn1c(SCC(=O)N(CC)C2CCS(=O)(=O)C2)nnc1C(CC)N(C)C (stereo not given)	>57	?
Cc1c(N(C)C(=O)C2CCCN2S(=O)(=O)c2ccccc2)c(=O)n(-c2ccccc2)n1C (stereo not given)	>57	.
COC(=O)c1ccccc1NC(=O)CN(C)S(=O)(=O)c1cc(C)ccc1OC	>57	?
Cc1noc(C)c1COC(=O)c1ccc(S(=O)(=O)NCc2ccco2)cc1	>57	-5%
CS(=O)(=O)N(CC(=O)NCC1CCCO1)Cc1ccc(Cl)cc1 (stereo not given)	>57	-12%
Cc1ccc(C)c(N(CC(=O)NCCSCc2ccco2)S(C)(=O)=O)c1	>57	?
O=C(CCCOc1ccccc1)Nc1nncs1	>57	3%
Cc1c(N(C)C(=O)c2ccccc2F)c(=O)n(-c2ccccc2)n1C	>57	0%
CCOC(=O)Cc1ccc(NS(=O)(=O)c2ccc(SC)cc2)cc1	.	-22%
CCOc1nc(-c2ccccc2)ccc1-c1noc(-c2ccc(OC)c(OC)c2)n1	>57	-14%
CCCCN(C)CCCNC(=O)CC1Oc2ccccc2NC1=O (stereo not given)	>57	1%
Cc1cc(Cl)c(S(=O)(=O)NCc2cccnc2)cc1OCC(N)=O	>57	-5%
COc1ccc(CN(C(=O)CN2C(=O)C(C)Oc3ccccc32)C2CCCC2)c(OC)c1 (stereo not given)	>57	-11%
O=C(O)CCn1c(=O)[nH]c2ccccc2c1=O	>57	-4%
O=C(COc1ccccc1)N1CCc2ccccc2C1	>57	.
CCOC(=O)c1ccccc1NC(=O)COC(=O)C1=COCCO1	>57	-9%
CCCCN1C(=O)C(O)(CC(=O)c2ccco2)c2cc(Br)ccc21 (stereo not given)	>57	?
CCn1cc(C(=O)NCC2CCCO2)c(=O)c2cc(S(=O)(=O)N(C)C3CCCCC3)ccc21 (stereo not given)	>57	-23%
CCOC(=O)C1CCCn2c1nc1sc3c(c1c2=O)CCCC3 (stereo not given)	>57	-12%
COc1ccccc1-n1cnnc1SCC(=O)c1ccc[nH]1	>57	?
COCCn1c(=O)c(C)nc2cnc(N3CCN(C)CC3)nc21	>57	4%
CCOC(=O)C1CCN(S(=O)(=O)c2nc3nc(C)cc(C)n3n2)CC1	>57	-2%
O=C1O[C@H]([C@@H](O)CO)C(O)=C1O	.	?
COCCNC(=O)C(c1cccs1)N(C(=O)Cn1nnc2ccccc21)c1cccc(C)c1 (stereo not given)	>57	8%
CC(NC(=O)CSc1n[nH]c(=O)n1C1CC1)C12CC3CC(CC(C3)C1)C2 (stereo not given)	>57	3%
CCOc1ccc(/C(O)=C2\C(=O)C(=O)N(CCN(C)C)C2c2cccc(OC)c2OC)cc1Cl (stereo not given)	>57	-2%
O=C(Cn1cnc2c(cnn2-c2ccc(F)cc2)c1=O)N1CCN(c2ccccc2)CC1	>57	-5%
CC[C@H](CO)NC(=O)[C@@H]1C=C2c3cccc4c3c(cn4C)C[C@@H]2N(C)C1	>57	-2%
N#CC(C(=O)C12CC3CC(CC(C3)C1)C2)c1nc2ccccc2[nH]1 (stereo not given)	>57	-20%
COc1ccc(S(=O)(=O)N2CCCN(CCC(=O)Nc3cccc(C(F)(F)F)c3)CC2)cc1	.	-3%
CN1C(=S)SC(C)(NO)C1(C)C (stereo not given)	>57	6%
CCc1nc(SCC(=O)N2CCC(C)CC2)c2c(=O)n(C)c(=O)n(C)c2n1	>57	11%
CCCn1c(=N)n(CC(O)c2ccco2)c2ccccc21 (stereo not given)	>57	-2%
CC(C)Sc1nc2c(c(=O)[nH]c(=O)n2C)n1C	>57	.
CCCCNC(=O)CCCn1c(=O)c2ccccc2n(CC(=O)NCCC2=CCCCC2)c1=O	>57	-10%
C=CCN(C(=O)CNC(=O)c1ccco1)C(C(=O)NC1CCCCC1)c1ccc(F)cc1 (stereo not given)	>57	20%
C[C@@H]1C(=O)N(C)C(=O)c2nc[nH]c21	>57	-2%
CCn1ccnc1C(O)c1cccc(OC)c1OC (stereo not given)	>57	-9%
COc1ccccc1NC(=O)CCN1CCN(CCC(=O)Nc2ccccc2OC)CC1	>57	-3%
Cn1c(=O)c2c(ncn2CC(=O)N2CCN(c3ccccc3)CC2)n(C)c1=O	>57	-5%
COCCCNC(=O)c1ccc2c(c1)ncn2-c1ccccc1OC	>57	11%
O=C1C=CC2=C3c4cc(O)c(O)cc4C[C@@]3(O)COC2=C1O	>57	25µM*
Cc1onc(-c2ccccc2)c1C(=O)Nc1nnc(N2CCCCCC2)s1	>57	23%

Nothing new here: two of the compounds above.
SMILES	Prx2 Sm inh	LT uptake inh
O=C1C=CC2=C3c4cc(O)c(O)cc4C[C@@]3(O)COC2=C1O	>57	25µM*
Cc1onc(-c2ccccc2)c1C(=O)Nc1nnc(N2CCCCCC2)s1	>57	23%

Carrying on:
SMILES	Prx2 Sm inh	LT uptake inh
CC(=O)N1CCc2cc(S(=O)(=O)NCCC(=O)NCCc3ccc(C)cc3)ccc21	>57	0%
CCCS(=O)(=O)O	>57	1%[8 µM]
COc1ccc(NC(=O)C(Cc2ccccc2)NC(=O)c2ccco2)cc1OC (stereo not given)	>57	18%
CCOC(=O)C1CCCN(C(=O)c2sc3nc(-c4ccc(F)cc4)cn3c2C)C1 (stereo not given)	>57	-28%
Nc1nnnn1/N=C/C=C/c1ccccc1	>57	-3%
Cc1ccc(CNC(=O)C2CC(=O)N(C3CCCCCCC3)C2)cc1 (stereo not given)	>57	?
COCCn1c(C)cc(C(=O)CSc2ncnc3sc4c(c23)CCC4)c1C	>57	-3%
Cc1cc(C)n2nc(C(=O)N3CCOCC3)nc2n1	>57	8%
CSCCC(NC(=O)c1ccco1)C(=O)OCC(=O)Nc1sccc1C#N (stereo not given)	>57	-4%
COC(=O)CN(c1ccc(F)cc1)S(=O)(=O)c1ccc2c(c1)OCCO2	>57	?
CN(C(=O)Cc1ccccc1)[C@H](CN1CCCC1)c1ccccc1	>57	-7%
Cc1cc(-c2ccccc2)c2nncn2n1	.	-4%
COc1ccccc1Oc1cc(C#N)c(C#N)cc1-n1nnc2ccccc21	>57	-12%
CCOc1ccccc1C1CC(=O)Nc2cc(OC)c(OC)c(OC)c21 (stereo not given)	>57	-5%
COc1cccc(CNC(=O)C2CCCN(c3nc4ccccc4o3)C2)c1 (stereo not given)	>57	?
O=C1NCCCc2nonc21	>57	-1%
Cc1ccccc1-n1c(O)c(C=NCCN2CCOCC2)c(=O)[nH]c1=O	>57	6%
O=C(NCCCN1CCC(Cc2ccccc2)CC1)C1CCN(S(=O)(=O)N2CCOCC2)CC1	>57	5%
COCc1nc2ccccc2n1CCOc1ccccc1OC	>57	-7%
COc1cc(C(=O)NCCC(=O)NCCCN2CCCCC2)cc(OC)c1OC	>57	-11%
CN(c1ccccc1C(=O)O)S(=O)(=O)c1ccc2c3c(cccc13)C(=O)N2	>57	.
O=C(CCCN1C(=O)c2ccccc2C1=O)NCCC1=CCCCC1	>57	5%
CCOC(=O)c1cccc(NC(=O)CSc2nnc(CNc3ccc(C)cc3)n2CC)c1	>57	4%
CN1CCN(CC#CC(C)(O)C2CC3C=CC2C3)CC1 (stereo not given)	>57	.
O=C1CCc2cc(S(=O)(=O)N3CCC(C(=O)NCCC4=CCCCC4)CC3)ccc2N1	>57	-8%
CC(=O)N1CCC2(CC1)C(C#N)=C(N)Oc1n[nH]c(C)c12	>57	0%
COCCOC(=O)C1=C(C)OC(N)=C(C(=O)OC)C12C(=O)Nc1ccccc12 (stereo not given)	>57	-3%
Cc1cccc(NCc2nc(SCC(N)=O)n[nH]2)c1	>57	-3%
CC(=O)Nc1ccc(N/C=C/C(=O)c2ccco2)cc1	>57	-2%
COc1ccc(C2=NOC(C(=O)Nc3c(C)n(C)n(-c4ccccc4)c3=O)C2)cc1OC (stereo not given)	>57	-5%
COC(=O)c1ccc(C)c(NS(=O)(=O)c2ccc(OC)cc2)c1	.	?
CC1(CCc2ccccc2)NC(=O)N(Cc2nnc(-c3ccccc3Br)o2)C1=O (stereo not given)	>57	-12%
Cn1c(=O)c2c(nc(CN3CCN(C(=O)c4ccco4)CC3)n2CCCc2ccccc2)n(C)c1=O	>57	8%
COc1ccc(-c2cn3c(C)c(C(=O)Nc4cccc(C)n4)sc3n2)cc1	>57	-26%
O=C(O)CCCCCn1c(SCC(=O)N2CCCC2)nc2ccsc2c1=O	>57	-1%
CCC(=O)N1CCc2cc(S(=O)(=O)NCCCOC)ccc21	>57	-24%
CCCC(c1nnnn1CCC(C)C)N1CCC(C(N)=O)CC1 (stereo not given)	>57	0%
Cc1ccc(S(=O)(=O)c2c(N)n(CCN3CCOCC3)c3nc4ccccc4nc23)cc1C	>57	0%
CCOc1ccc(-n2c(SCc3ccc(C(=O)OC)o3)nc3c(c2=O)SCC3)cc1	>57	9%
CCN(CC)c1ccc(NC(=O)c2[nH]c(C)c(C(C)=O)c2C)c(C)c1	>57	2%
N#Cc1cccc(NC(=O)N2CCCC3(CCN(C(=O)c4csnn4)CC3)C2)c1	>57	-1%
O=C(OCn1nnc2ccccc2c1=O)C1CCN(S(=O)(=O)c2cccs2)CC1	>57	1%
CC(=O)Nc1ccc(NC(=O)c2c(C)nc3ccccn23)cc1	>57	5%
COCC(=O)N(Cc1nc2ccccc2c(=O)[nH]1)Cc1cccs1	>57	-4%
CCOC(=O)N1CCN(S(=O)(=O)c2cccs2)CC1	>57	2%
COc1ccc(S(=O)(=O)N2CCCC(C(=O)Nc3ccc(OC)c(OC)c3)C2)cc1 (stereo not given)	>57	3%
COc1cc2nc(N(C)CCCNC(=O)[C@@H]3CCCO3)nc(N)c2cc1OC	>57	5%[3.58 µM]
Cc1[nH]c2ccccc2c1SCCNC(=O)c1ccc(Br)o1	>57	?
Cc1cc(C)c2nc(N3CCN(C)CC3)c(C#N)cc2c1	>57	-10%
Cc1cccc(C)c1NC1=NCCCCS1	>57	2%
COc1ccc(-n2c(=O)c(-c3ccccc3)nc3cnc(N4CCN(C)CC4)nc32)cc1	>57	-9%
COc1ccc(CC2c3cc(OC)c(OC)cc3CCN2C)cc1OC (stereo not given)	>57	-2%
CCOc1ccc(C(=O)NCCC(=O)NCCCC(=O)O)cc1	>57	-3%
CN(C)c1ccc(-c2nn3c(C4CCCCC4)nnc3s2)cc1	>57	-2%
CCOC(=O)Cc1csc(NC(=O)C2CCCCC2C(=O)O)n1 (stereo not given)	>57	-4%
O=c1c(CCc2ccccc2)nc2cnc(Oc3cccc(Cl)c3)nc2n1C[C@H]1CCCO1	>57	?
O=c1c2cnn(-c3ccccc3)c2ncn1Cc1ccccn1	>57	-5%
O=C(CSc1nc(-c2ccco2)cc(C(F)(F)F)n1)Nc1ccc2c(c1)CCC2	>57	-11%
COc1cc(OC)cc(C(=O)NCc2nc(-c3ccccc3)no2)c1	>57	-4%
CCn1cc(C(=O)N2CCOCC2)c(=O)c2cc(S(=O)(=O)N(C)C)ccc21	>57	5%

(cont.)
SMILES	Prx2 Sm inh	LT uptake inh
COc1ccc(N(CC(=O)Nc2cc(OC)ccc2OC)S(C)(=O)=O)cc1	.	-7%
COc1cccc(NC(=O)CSc2nncn2-c2ccccn2)c1	>57	-12%
Cc1ccc(C)c(-n2c(CNC(=O)c3ccco3)nnc2SCC(=O)N2CCc3ccccc32)c1	>57	-2%
COC(=O)c1ccc(C(NC(=O)OCc2ccccc2)/C(C)=C/[C@@H](C)C(=O)N(C)Cc2cccnc2)cc1 (stereo not given in full)	.	-12%
CCn1c(=O)c2c(nc3n2CC(C)CN3CCc2ccccc2)n(C)c1=O (stereo not given)	>57	8%
N/C(=N\O)c1ccc(NC(=O)c2ccc(Br)o2)cc1	>57	?
CCCn1c(=O)c2[nH]c(-c3ccccc3)nc2n(CCC)c1=O	>26	-14%
Cc1cccnc1NC(=O)CCCN1C(=O)c2ccccc2C1=O	>57	3%
O=C(Nc1ccccn1)C12CC3CC(C1)CC(C(=O)Nc1ccccn1)(C3)C2	>57	10%
CCc1ccccc1NC(=O)c1cnc2scc(C)n2c1=O	>57	-12%

Gathered by group: the entries above containing an NH in an aromatic ring
SMILES	Prx2 Sm inh	LT uptake inh
Cc1cc(=O)[nH]c(SCC(N)=O)c1C#N	>57	-19%
O=C(O)CCn1c(=O)[nH]c2ccccc2c1=O	>57	-4%
COc1ccccc1-n1cnnc1SCC(=O)c1ccc[nH]1	>57	?
CC(NC(=O)CSc1n[nH]c(=O)n1C1CC1)C12CC3CC(CC(C3)C1)C2 (stereo not given)	>57	3%
N#CC(C(=O)C12CC3CC(CC(C3)C1)C2)c1nc2ccccc2[nH]1 (stereo not given)	>57	-20%
CC(C)Sc1nc2c(c(=O)[nH]c(=O)n2C)n1C	>57	.
C[C@@H]1C(=O)N(C)C(=O)c2nc[nH]c21	>57	-2%
Cc1ccccc1-n1c(O)c(C=NCCN2CCOCC2)c(=O)[nH]c1=O	>57	6%
CC(=O)N1CCC2(CC1)C(C#N)=C(N)Oc1n[nH]c(C)c12	>57	0%
Cc1cccc(NCc2nc(SCC(N)=O)n[nH]2)c1	>57	-3%
CCN(CC)c1ccc(NC(=O)c2[nH]c(C)c(C(C)=O)c2C)c(C)c1	>57	2%
COCC(=O)N(Cc1nc2ccccc2c(=O)[nH]1)Cc1cccs1	>57	-4%
Cc1[nH]c2ccccc2c1SCCNC(=O)c1ccc(Br)o1	>57	?
CCCn1c(=O)c2[nH]c(-c3ccccc3)nc2n(CCC)c1=O	>26	-14%

This is a subset, so the mix of outcomes need not match the whole.
